VDR inhibitor: inhibitors of human vitamin D receptor | P11473 | VDR-SRC2-3 peptide fluorescence polarization, 2 h | Potency, µM, for the others: max response, negative = inhibition, usual class: inhibitors | actives 0.93% (n = 400,000) | AID 504847; active = well fitted inhibition curve with a large enough effect; inconclusive = small, poorly fitted or top-dose-only effect, or another doubt; inactive = no such curve, though single readings can be large or run the other way; note: series mostly up to about 120 µM
Target sequence (P11473 whole entry, looked up): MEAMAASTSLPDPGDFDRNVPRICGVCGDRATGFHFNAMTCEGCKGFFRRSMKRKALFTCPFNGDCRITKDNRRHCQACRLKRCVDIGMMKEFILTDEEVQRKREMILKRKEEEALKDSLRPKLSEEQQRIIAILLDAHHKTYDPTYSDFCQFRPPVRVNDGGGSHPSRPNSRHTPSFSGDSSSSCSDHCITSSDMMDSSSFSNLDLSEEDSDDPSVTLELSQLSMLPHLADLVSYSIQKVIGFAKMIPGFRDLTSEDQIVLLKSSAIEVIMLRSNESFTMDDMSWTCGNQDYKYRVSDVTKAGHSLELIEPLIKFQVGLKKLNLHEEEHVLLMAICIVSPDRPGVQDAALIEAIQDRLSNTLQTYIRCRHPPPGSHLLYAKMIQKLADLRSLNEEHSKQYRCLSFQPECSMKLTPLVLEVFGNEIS
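Measured by FP: displacement of SRC2-3 coactivator peptide from VDR by library compounds, following a two-hour ambient incubation.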
* = called active by the depositor; ? = inconclusive; & = joins results of further samples; [ ] = remark or other dose. % is set by controls: 0 for no effect and ±100 for the full control effect; potency is the fitted concentration of half-maximal effect. These rows are one share of the data; rates above refer to the full screens.

Molecule | VDR inhibitor
O=[N+]([O-])c1cc(-c2nnc(N3CCOCC3)c3ccccc23)ccc1N1CCOCC1 | 14.2%
CC(C)C1NC(=S)N(Cc2ccccc2)C1=O (stereo not drawn) | -0.9%
CCOC(=O)Cn1c(=NC(=O)c2ccc([N+](=O)[O-])s2)sc2ccccc21 | -14.4%
O=C(C1CC(=O)N(c2ccccc2)C1)N1CCN(c2ccccc2F)CC1 (stereo not drawn) | -2.9%
N#C/C(=C/C1=C(N2CCOCC2)C(=C/c2ccccc2)/CC1)C(=O)Nc1ccccc1F | 4.1%
O=S(=O)(c1cccc(C(F)(F)F)c1)N1CCN(c2nc(-c3cccs3)nc3cc(Cl)ccc23)CC1 | -1.2%
N#CC1(NC(=O)Cn2cc(C(F)(F)F)ccc2=O)CCCC1 | -10.4%
COc1ccc(NC(=O)c2c(-c3ccc(C)cc3)nnc3ccccc23)c(OC)c1 | 10.6%
COc1cc(-c2noc(C)c2C#Cc2nccn2C)cc(OC)c1OC | -9.6%
Cc1ccc(SCC(=O)NC(=O)Nc2ccc3c(c2)OCCO3)cc1C | -0.8%
C[C@H]1[C@H](C)CC[C@]2(C(=O)O)CC[C@]3(C)C(=CC[C@@H]4[C@@]5(C)CC[C@H](O)C(C)(C)[C@@H]5CC[C@]43C)[C@H]12 | 8.7%
COCCCNC(=O)CN(c1cccc(Cl)c1C)S(C)(=O)=O | -2.3%
Cc1ccc2[nH]c(=O)c3cc(C(=O)NCCc4ccc(Cl)cc4)sc3c2c1 | 1.0%
Cc1cn(C2CC(OC(=O)C(C)C)C(CO)O2)c(=O)[nH]c1=O (stereo not drawn) | -2.3%
COc1cc(Cl)c(C)cc1NC(=O)CSc1ccc(NC(C)=O)cc1 | 0.9%
COc1ccc(CNC(=O)C2CCCN2CCc2ccccc2)cc1OC (stereo not drawn) | -12.7%
COc1ccc(OC)c(CNC(=O)Cc2ccc(NC(=O)N3CCSc4ncccc43)cc2)c1 | 7.6%
Cc1nnc(NC(=O)CN2C(=O)c3ccccc3S2(=O)=O)s1 | 13.4%
CC(C)(CCO)Nc1ncnc2onc(-c3ccc(F)cc3)c12 | 1.4%
NS(=O)(=O)c1ccc(NC(=O)CSc2nc(Nc3ccccc3)nc(N3CCOCC3)n2)cc1 | -4.2%
O=C(c1cc(COc2ccc(F)cc2F)on1)N1CC[C@@H]2CCCC[C@H]2C1 | 2.4%
COC(C[C@H](O)C[C@@H](O)[C@@H](C)OCc1ccccc1)OC | -17.8%
Cc1ccccc1CS(=O)(=O)CC(O)CN1CCCC1=O (stereo not drawn) | 20.9%
Cc1c(CCOC(=O)C23CC4CC(CC(C4)C2)C3)sc[n+]1Cc1ccccc1 | -21.6%
O=C(CSc1n[nH]c(-c2ccccn2)n1)Nc1ccc(F)cc1 | -10.3%
Cc1ccc2nc(NCC(=O)O)nc(-c3ccccc3)c2c1 | 8.2%
CCn1c(SCC(=O)c2ccccc2)nnc1-c1cnccn1 | 0.9%
COc1cccc(NC(=O)CN(CCc2ccccc2)S(=O)(=O)c2ccc(Cl)cc2)c1 | -4.0%
CCCCN(CC)Cc1ccc(CNC(=O)Nc2ccc(OCC)cc2)o1 | 2.9%
CN(C)c1ccc(/C=N/NC(=O)CNC(=O)/C=C/c2ccccc2)cc1 | -16.9%

Reformatted: 2 of the compounds above
> Cc1ccccc1CS(=O)(=O)CC(O)CN1CCCC1=O (stereo not drawn)
  VDR inhibitor = 20.9%

> Cc1ccc(SCC(=O)NC(=O)Nc2ccc3c(c2)OCCO3)cc1C
  VDR inhibitor = -0.8%

The results go on.
Molecule | VDR inhibitor
COC(=O)C1=C(C)NC(C)=C(C(=O)OC)C1c1ccc2ccccc2n1 | -12.7%
O=C(Cn1cnc2ccccc21)Nc1ccc(SC(F)F)cc1 | 16.9%
COC(=O)[C@@H](NC(=O)O[C@H]1C(=O)c2cc(OC)ccc2O[C@@H]1c1ccc(OC)c(Br)c1)C(C)C | -2.5%
Cc1cccc(Cc2cnc(NC(=O)c3ccc4c(c3)CC(c3ccccc3)OC4=O)s2)c1 (stereo not drawn) | 14.2%
Cn1cccc1C(=O)N1CCC2(CCCN(C(=O)Nc3cccc(C#N)c3)C2)CC1 | -19.2%
CC(=O)c1ccccc1OCC(O)CN1CCN(C(c2ccccc2)c2ccccc2)CC1 (stereo not drawn) | 38.8%[activator]
CCCCNc1oc(-c2ccc(OC)cc2)nc1S(=O)(=O)c1ccccc1 | 5.5%
CC(NC(=O)Cn1cnc([N+](=O)[O-])n1)c1ccccc1 (stereo not drawn) | -4.6%
Cc1cc(C(=O)NNC(=O)c2ccccc2F)c2ccccc2n1 | -9.8%
O=C(CCN1C(=O)c2ccccc2S1(=O)=O)Nc1cc(Cl)ccc1Cl | 1.7%
CN(C)S(=O)(=O)c1cccc(NC(=O)c2cncc(Br)c2)c1 | -15.0%
COc1ccc(CN=Cc2c(C(F)(F)F)[nH][nH]c2=O)cc1 | -13.9%
CCOC(=O)c1c(C)c(C(=O)Nc2ccccc2)c(C)n1CC | -3.9%
COc1cc2[nH]c(=O)n(Cc3ccc(C(=O)NC4CCN(Cc5ccccc5)CC4)cc3)c(=O)c2cc1OC | -4.9%
O=P(CCc1ccccc1)(c1ccccc1)c1ccccc1 | 3.2%
CCN(C(=O)c1nn(-c2ccc(OC)cc2)c(=O)c2c1c1ccccc1n2C)c1ccc(OC)cc1 | -12.5%
Cc1cccc(OCC(=O)Nc2c(C(=O)N3CCN(c4ccccc4)CC3)oc3ccccc23)c1 | 18.0%
Cc1ccc(NC(=S)c2ccc(N(C)C)cc2)cc1 | -26.5%
O=S(=O)(NCc1ccncc1)c1ccc(S(=O)(=O)NCC2CCCO2)cc1 (stereo not drawn) | 18.0%
COc1cccc(-n2ccn(CC(=O)NCc3ccc(C)cc3)c(=O)c2=O)c1 | -5.2%
O=C(O)c1ccc(S(=O)(=O)c2ccc3c(c2)C(=O)N(NC(=O)c2ccc(O)cc2)C3=O)cc1 | -2.0%
COc1ccc(Cl)cc1-n1nnc(-c2nc(-c3ccccc3)no2)c1C | 7.2%
O=C(NC1CCCCC1)C(c1ccncc1)N(CC1CCCO1)C(=O)C(F)(F)F (stereo not drawn) | -1.0%
CCNC(=O)CCc1nc(-c2ccc(C)cc2)no1 | -8.0%
O=C(Nc1ccccc1C(F)(F)F)N1CC=C(c2c[nH]c3ccccc23)CC1 | 16.7%
O=C(/C=C/c1ccc2c(c1)OCO2)NC1CCCC1 | -2.0%
O=C1CC(C(=O)N(CC2CCCO2)C(C(=O)NC2CCCCC2)c2ccncc2)CS1 (stereo not drawn) | 5.4%
COc1ccc(OCC(=O)NCC(c2ccc(Cl)cc2)N2CCCCC2)cc1 (stereo not drawn) | 10.4%
COc1ccc2c(-c3ccccc3)cc(SCC(=O)N(C)C3CCS(=O)(=O)C3)nc2c1 (stereo not drawn) | -12.0%
c1ccc(-c2noc(-c3ccncc3)n2)nc1 | -2.3%

Additional results:
Molecule | VDR inhibitor
COc1ccc(S(=O)(=O)N(CC(=O)NC(C)C)Cc2ccccc2)cc1 | 4.1%
CCn1c(=O)n(CC)c2cc(N3CCCC3)c(NC(=O)c3cc(Br)ccc3OC)cc21 | ?
COc1ccc(N=[N+]([O-])c2ccc(OC)cc2)cc1 | 16.0%
COc1ccc(NC(C)C(=O)N/N=C/c2ccccc2OCc2cccc(Br)c2)cc1 (stereo not drawn) | 5.9%
Cc1cc(C(=O)N(C)C2CCCCC2)no1 | -7.3%
CC(C)Oc1cccc(C(=O)C2CCCN(Cc3cnn(C(C)C)c3)C2)c1 (stereo not drawn) | 6.4%
CCOc1ccc(CCNC(=O)COC(=O)COc2ccc(Cl)cc2)cc1OCC | 2.4%
O=C(CCc1nc2ccccc2[nH]1)Nc1ccccc1F | -1.3%
COc1ccc(/C(C)=N/NC(=O)OC(C)(C)C)cc1[N+](=O)[O-] | -2.7%
COc1ccccc1C(C)NC(=O)c1cc(S(=O)(=O)N2CCCCC2)ccc1C (stereo not drawn) | -14.3%
CC1=C(C)CC(C(=O)NNC(=O)c2csc(C)c2C)C(C(=O)O)C1 (stereo not drawn) | -9.9%
COc1ccc(CC(=O)Nc2ccc(/C(C)=N\NC(=O)c3ccc(Br)o3)cc2)cc1 | 5.6%
Brc1ccc(-c2nc(-c3cccnc3)no2)o1 | 14.0%
Cc1nc2c(ccc3nc(NC(=O)c4ccc5c(c4)OCCO5)sc32)s1 | 14.3%&-14.1%
Cc1cc[n+](-c2[nH]c(=O)sc2/C=N/NC([S-])=Nc2ccccc2)cc1C | -15.1%
Cc1ccccc1/C=N/n1c(-c2cc(-c3ccccc3)n[nH]2)n[nH]c1=S | -4.6%
CC12CCC(=O)N1C(C(=O)Nc1cc(Cl)ccc1N1CCOCC1)CS2 (stereo not drawn) | -16.9%
Cc1cc(NC(=O)CC(C)C)cc(-c2nc3ncccc3o2)c1O | 5.9%
CC1=C(c2ccc(C(C)C)cc2)S(=O)(=O)N=C1N1CCN(c2ccccc2F)CC1 | 5.9%
COc1cc(CNC(C)C23CC4CC(CC(C4)C2)C3)cc(OC)c1OC (stereo not drawn) | -9.6%
CCNc1nc(NCC)n2c(SC(C(=O)Nc3cc(Cl)cc(Cl)c3)c3ccccc3)nnc2n1 (stereo not drawn) | -7.2%
O=C1CC(Sc2ncccc2C(=O)O)C(=O)N1 (stereo not drawn) | -0.7%
COc1ccc(NC(=O)c2cc(-c3ccco3)on2)c(OC)c1 | -29.7%
COc1ccc(C(=O)Nc2nnc(S(=O)(=O)N3CCCCCC3)s2)cc1OC | 3.0%&-11.4%
COc1ccccc1-n1c(C)cc(C=O)c1C | 7.7%
CC(=O)N1CCc2cc(S(=O)(=O)CCC(=O)NCCc3ccc(C)cc3)ccc21 | 3.2%
C=CCN(c1ccccc1)S(=O)(=O)c1cc2c(cc1C)NC(=O)CO2 | -11.4%
CCCCN(CCCNC(=O)CN1C(=O)COc2ccc(S(=O)(=O)N3CCC(C)CC3)cc21)Cc1ccccc1 | 8.3%
Cc1cccc(CNS(=O)(=O)c2ccc(-c3coc(C)n3)cc2)c1 | -0.7%
COc1ccc(C2(c3ccc(OC(C)=O)cc3OC(C)=O)CC(c3ccccc3)NC(=S)N2)cc1 (stereo not drawn) | -8.6%

Four of the entries above in order of their number in VDR inhibitor, falling.
molecule	VDR inhibitor
O=C(CCc1nc2ccccc2[nH]1)Nc1ccccc1F	-1.3%
CCNc1nc(NCC)n2c(SC(C(=O)Nc3cc(Cl)cc(Cl)c3)c3ccccc3)nnc2n1 (stereo not drawn)	-7.2%
COc1cc(CNC(C)C23CC4CC(CC(C4)C2)C3)cc(OC)c1OC (stereo not drawn)	-9.6%
CC12CCC(=O)N1C(C(=O)Nc1cc(Cl)ccc1N1CCOCC1)CS2 (stereo not drawn)	-16.9%

(cont.)
Molecule | VDR inhibitor
Cc1ccc(C(=O)COC(=O)COc2ccccc2[N+](=O)[O-])s1 | -19.2%
CCOC(=O)C1CCN(S(=O)(=O)c2ccc(NC(=O)c3ccco3)cc2)CC1 | 0.9%
COc1ccc(Cl)cc1NC(=O)CSc1nc(-c2ccco2)cc(C(F)(F)F)n1 | -11.1%
O=C(COc1ccccc1)N1CCN(C(=O)c2ccc([N+](=O)[O-])cc2)CC1 | 8.4%
CC(=O)c1ccc(-c2ccc(Cn3c(C)nc4cc(N)c(C)nc43)cc2)cc1 | -4.2%
COc1ccc(CNC(=O)C(OC(=O)c2ccco2)c2ccccc2F)cc1 (stereo not drawn) | 8.3%
Cc1ccc(CNC(=O)Cc2ccc(Br)cc2)cc1 | 8.2%
CCc1ccccc1N(CC(=O)O)S(C)(=O)=O | -11.4%
Cc1nc(-c2ccncc2)nc(NCCNc2ncccc2C(F)(F)F)c1Cl | -0.9%
O=C(O)C[C@@H]1NC(=O)[C@H](Cc2ccccc2)NC1=O | -16.6%
Cc1nc(-c2ccc(Cl)cc2)sc1C1(C)CC(c2ccccc2F)=NO1 (stereo not drawn) | -16.9%
C[C@]12CC[C@H](OC(=O)CCC(=O)O)CC1=CCC1C2CC[C@@]2(C)C1CC[C@@H]2N (stereo partly drawn) | -7.2%
O=C(COC(=O)c1ccccn1)Nc1ccc2c(c1)OCO2 | -26.9%
COc1ccc(-n2nnnc2SCC(=O)NC2CC2)cc1 | -9.0%
c1cc2cc(-c3c(-c4ccc5c(c4)OCO5)noc3-c3ccsc3)ccc2[nH]1 | -29.6%
CC1CCCCN1Cc1ccc(-c2nnn(CC(=O)NC3CCCCC3)n2)cc1 (stereo not drawn) | -18.7%
COc1ccccc1/C=N/NC(=S)NCc1ccco1 | 6.3%
Cc1ccc2[nH]c3c(c2c1)CN(C(=O)CN1CCCc2ccccc21)CC3 | 10.1%
O=C(CSc1nnc(SCc2ccccc2Cl)s1)N/N=C/c1ccc(C(=O)O)cc1 | -13.1%
COc1ccccc1N1CCN(CC(=O)Nc2cc(C)nn2-c2nc(C)cc(C)n2)CC1 | 14.9%
CC1CC(C)CN(C(=O)c2cc3ccccc3o2)C1 (stereo not drawn) | -20.1%
c1ccc(-c2nccc(-c3ccc(-n4cnc5ccccc54)cc3)n2)nc1 | 15.5%
CCCCC(C(=O)NC1CCCC1)N(C(=O)c1snc(C(N)=O)c1N)c1ccc(OCC)cc1 (stereo not drawn) | 8.3%
COc1ccccc1NC(=S)N(Cc1ccco1)Cc1cc2cc(C)c(C)cc2[nH]c1=O | -16.5%
Cc1cc(C)c(NC(=O)Cn2c(=O)n(-c3ccc(F)cc3)c(=O)c3c(C)c(C(=O)N(C)C)sc32)c(C)c1 | 4.9%
COc1cc(=O)[nH]c(SC(C)C(=O)Nc2cc(C)on2)n1 (stereo not drawn) | -0.5%
CCOc1ccc(NC(=O)C2CCN(S(=O)(=O)c3c(C)noc3C)CC2)cc1 | -13.0%
Cc1cccc(Cn2c(C)c(C)c3cc(C(=O)NCCN4CCOCC4)ccc32)c1 | 10.4%
CN(C)c1ccc(-c2n(C)c3ccccc3[n+]2C)cc1 | -12.9%

Compound activity: PubChem BioAssay, National Center for Advancing Translational Sciences (NCATS)
